Screens from PubChem.
PINK1 expr mod: A Quantitative High throughput Screen to Identify Chemical Modulators of PINK1 Expression; PINK1 immunofluorescence, high-content cytometry, 24 h; Potency, µM (titrated, usually from 76.6 µM), inactives show at the highest dose activation (PINK1 increase), most hits filed as activators; 0.2% of 410,000 active; active = well fitted activation curve with a large enough effect; inconclusive = small, poorly fitted or top-dose-only effect; inactive = flat fitted curve, though single readings scatter; cell line not stated here;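 note: potency is the fitted concentration of half-maximal effect; % of control where 0% means no effect; nearly all actives have a fitted effect of over 65% in size; a mitochondrial uncoupler was the plate control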
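Fluorescence from anti-PINK1 antibody, together with nuclear and cell stains, was scanned on a laser-scanning cytometer. Before staining, stable-line cells were incubated 24 hours with compounds at 5 concentrations; primary antibody 12 h at 10 degrees C.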
CtBP-E1A inh: qHTS Assay for Inhibitors of the CtBP/E1A Interaction | CtBP / adenovirus E1A interaction (AlphaScreen) | AlphaScreen GST-E1A/His-CtBP binding, 1536-well; hits give low values; control for the full effect not named in the record | activity change, % (no concentration beside the values) | 0.49% of 340,000 active | AID 651724, 2012; in the data active means activity change below about -65%; inconclusive means about -30% to -65%; inactive means above about -30%; note: % is set by controls: 0 for no effect and ±100 for the full control effect; compound concentration not given in the record
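Homogeneous bead-based format: GST-tagged E1A captured on glutathione donor beads, His-tagged CtBP on nickel acceptor beads; compounds precede bead addition by 2 h at 37 °C.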
D2 potentiator: Beta-Arrestin HTS for Positive Allosteric Modulators of the Human D2 Dopamine Receptor: Potentiators; DiscoveRx D2 beta-arrestin cells, luminescence, 90 min; 100% = 57 uM dopamine signal; potentiation, % (test concentration not listed); 0.23% of 360,000 active; active = potentiation of 50% or more; inconclusive = 30% to 50%; inactive = 30% or less;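 note: compound concentration not given in the record; tested on top of an EC20 dose of dopamine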
Target sequence (P14416 whole entry, looked up): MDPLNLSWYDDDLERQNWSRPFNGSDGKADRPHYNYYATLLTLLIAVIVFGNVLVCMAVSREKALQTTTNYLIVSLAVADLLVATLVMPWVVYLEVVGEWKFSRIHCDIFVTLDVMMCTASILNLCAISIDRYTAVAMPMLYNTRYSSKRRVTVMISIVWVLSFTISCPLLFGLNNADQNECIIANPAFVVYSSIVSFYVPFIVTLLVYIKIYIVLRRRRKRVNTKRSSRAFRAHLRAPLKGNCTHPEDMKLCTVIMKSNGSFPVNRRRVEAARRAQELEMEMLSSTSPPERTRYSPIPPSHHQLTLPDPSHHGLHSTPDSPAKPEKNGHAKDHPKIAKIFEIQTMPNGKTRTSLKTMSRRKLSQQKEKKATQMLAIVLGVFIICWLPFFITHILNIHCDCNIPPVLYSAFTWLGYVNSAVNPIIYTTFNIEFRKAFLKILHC
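D2 cells co-treated with compound plus 50 nM dopamine (EC20) for 90 min at 37 deg C to detect potentiation. Beta-arrestin recruitment was read as enzyme-fragment luminescence after 1 h at ambient temperature. Full response was set by 57 uM dopamine.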
D2 ag: Beta-Arrestin HTS for Positive Allosteric Modulators of the Human D2 Dopamine Receptor: Agonists; 0.084% of 360,000 active; activation, % (concentration not given with the values); DiscoveRx PathHunter D2 beta-arrestin, luminescence, 90 min; 100% = 57 uM dopamine signal; AID 624465, 2012; in the data active = activation above about 40%; inconclusive = about 15% to 40%; inactive = below about 15%; note: compound concentration not given in the record; the text of the record calls up to 30% inactive
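Agonist mode: compounds alone added to overnight-plated D2 PathHunter cells for 90 min at 37 C, with 57 uM final dopamine (EC100) defining full response. Beta-arrestin recruitment detected by chemiluminescent reagent, read after 1 h at ambient temperature.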
TRPML1 ag: qHTS for Agonists of the Human Mucolipin Transient Receptor Potential 1 (TRPML1); TRPML1-expressing cells, Ca2+ dye fluorescence, FDSS; host cell line not named in the record; reference of the full effect not given here; activation, % (no concentration beside the values); 0.12% of 410,000 active; in the data active = activation above about 50%; inconclusive = about 30% to 50%; inactive = below about 30%; note: 0% is about no effect; the text of the record puts the active cut at 80%
Target sequence (Q9GZU1 whole entry, looked up): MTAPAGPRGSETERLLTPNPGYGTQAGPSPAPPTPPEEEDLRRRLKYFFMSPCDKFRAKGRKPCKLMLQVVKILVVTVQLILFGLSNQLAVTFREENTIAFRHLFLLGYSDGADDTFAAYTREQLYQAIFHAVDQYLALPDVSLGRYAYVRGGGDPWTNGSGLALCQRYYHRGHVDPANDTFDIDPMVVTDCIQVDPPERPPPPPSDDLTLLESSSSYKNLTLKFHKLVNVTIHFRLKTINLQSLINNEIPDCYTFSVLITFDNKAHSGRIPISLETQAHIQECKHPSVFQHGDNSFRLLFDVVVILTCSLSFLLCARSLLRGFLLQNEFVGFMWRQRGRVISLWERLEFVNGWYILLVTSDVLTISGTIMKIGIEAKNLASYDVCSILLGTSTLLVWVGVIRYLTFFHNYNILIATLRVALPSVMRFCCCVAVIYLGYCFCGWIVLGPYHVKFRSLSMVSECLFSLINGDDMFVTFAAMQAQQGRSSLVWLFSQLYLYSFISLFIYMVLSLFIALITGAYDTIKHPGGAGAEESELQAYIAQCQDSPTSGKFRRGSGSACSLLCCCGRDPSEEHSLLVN
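Calcium fluorescence on an FDSS kinetic reader gave the read-out. Tet-induced TRPML1-DL cells were plated overnight, dye-loaded (Ca8 with quencher, 45-90 min, room temperature, dark), then read 110 s after compound addition, and again 110 s after 4uM final 54-4 (EC80).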
Six1-Eya2 inh: qHTS Assay for Inhibitors of the Six1/Eya2 Interaction; Homeobox protein SIX1 (Homo sapiens) + Protein phosphatase EYA2 (Homo sapiens), …; AlphaScreen GST-Six1/His-Eya2 binding, biochemical; hits give low values; control for the full effect not named in the record; activity change, % (no concentration beside the values); 0.56% of 360,000 active; in the data active = activity change below about -65%; inconclusive = about -30% to -65%; inactive = above about -30%; note: % is set by controls: 0 for no effect and ±100 for the full control effect; compound concentration not given in the record
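Compounds are tested against tagged Six1 and Eya2 proteins bridged by glutathione donor and nickel acceptor beads; after a one-hour incubation at 37 °C without light, AlphaScreen emission is recorded.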
Numbers without * were called inactive; ? = inconclusive; / = no result given; & = joins results of further samples; [ ] = remark or other dose.

canonical_smiles	TRPML1 ag	PINK1 expr mod	Six1-Eya2 inh	CtBP-E1A inh	D2 potentiator	D2 ag
CCOP(=O)(OCC)C(NC(=O)c1ccccc1C)C(Cl)(Cl)Cl (stereo unspecified)	-1.1	-0.2%	0.2	-14.0	-15.4	-4.7
O=S1(=O)N(CCN2CC=C(c3c[nH]c4cc(F)ccc34)CC2)c2cccc3c2N1CCC3	-0.3	?	-3.8	-15.7	-19.6	12.2
NC(=Nc1ccccc1)NN=Cc1c[nH]c2ccccc12	-0.1	1.0%	-23.6	-1.8	-20.1	-1.1
Cc1ccccc1N	-0.6	0.7%	5.2	-0.1	-0.2	3.3
COCc1ccc(CN2CCCC(C(=O)c3sccc3C)C2)o1 (stereo unspecified)	0.2	-0.9%	-1.6	-24.4	-19.0	-1.1
COC(=O)C1=C(c2ccc(-c3ccccc3)c(F)c2)C[C@@H]2CC[C@H]1N2C(=O)N1CCOCC1	1.3	2.3%	-13.0	-2.1	-13.0	-2.8
COc1ccccc1C1C([N+](=O)[O-])=C(N)Oc2c1c(=O)oc1ccccc21 (stereo unspecified)	-0.8	1.0%	-15.7	2.6	-7.6	-5.4
CC1CC(OP(O)(=S)c2ccc(N(C)C)cc2NC(=O)c2cccs2)CC(C)(C)C1 (stereo unspecified)	0.2	0.2%	-27.2	-9.6	1.5	-1.3
O=P(/C(=N/O)N1CCCCC1)(N1CCOCC1)N1CCOCC1	-0.5	-0.3%	-2.1	11.5	3.8	-2.6
CN1c2ccc([N+](=O)[O-])cc2CC2(C(=O)NC(=O)N(c3ccc(Br)cc3)C2=O)C1c1ccccc1 (stereo unspecified)	0.6	1.9%	-8.8	-6.6	-24.2	-2.8
COC(=O)C1=C(c2cc3ccccc3o2)C[C@@H]2CC[C@H]1N2C(=O)NCc1ccco1	0.4	1.2%	-10.0	-5.1	-11.0	-1.1
CC(C)COP(=O)(OCC(C)C)C(Nc1ccccc1)c1ccccc1 (stereo unspecified)	3.1	?	-0.4	3.5	-4.8	-1.9
Cc1cc(OCC(=O)N2CCCN(C)CC2)ccc1Cl	0.9	-0.7%	0.9	7.8	-7.2	0.1
COc1ccc(/C=C2\C(=O)NC(=S)N(C)C2=O)cc1C	-0.6	-0.6%	?	3.2	-12.6	-4.5
CCOc1cc(C=C2C(=O)NC(=S)NC2=O)ccc1O	0.8	-0.8%	-0.8	-12.5	-6.6	-6.3
COc1ccccc1NC(=O)COC(=O)c1cn(C)c2ccccc12	1.7	4.4%	-2.1	2.8	-6.0	-1.3
c1cncc(C2CC(c3cccs3)n3ncnc3N2)c1 (stereo unspecified)	-0.1	1.6%	-0.5	-0.5	-5.9	3.0
COc1ccc(C(C)=O)cc1Cc1c(O)[nH]c(=S)[nH]c1=O	0.1	1.9%	-1.9	-2.6	-6.0	-6.1
CCOC(=O)c1cccc(C2=C(CNC(=O)c3ocnc3C)[C@H]3CC[C@@H](C2)N3Cc2ccccc2)c1	0.0	-0.6%	-4.8	0.0	-8.2	-4.1
CCOC(=O)C1(CCOc2ccccc2)CCN(C(C)CSC)CC1 (stereo unspecified)	0.9	7.5%	-12.4	-18.7	-18.3	-4.5

Five records picked at random from those above, as already listed:
canonical_smiles	TRPML1 ag	PINK1 expr mod	Six1-Eya2 inh	CtBP-E1A inh	D2 potentiator	D2 ag
COC(=O)C1=C(c2ccc(-c3ccccc3)c(F)c2)C[C@@H]2CC[C@H]1N2C(=O)N1CCOCC1	1.3	2.3%	-13.0	-2.1	-13.0	-2.8
CC(C)COP(=O)(OCC(C)C)C(Nc1ccccc1)c1ccccc1 (stereo unspecified)	3.1	?	-0.4	3.5	-4.8	-1.9
COc1ccc(/C=C2\C(=O)NC(=S)N(C)C2=O)cc1C	-0.6	-0.6%	?	3.2	-12.6	-4.5
c1cncc(C2CC(c3cccs3)n3ncnc3N2)c1 (stereo unspecified)	-0.1	1.6%	-0.5	-0.5	-5.9	3.0
NC(=Nc1ccccc1)NN=Cc1c[nH]c2ccccc12	-0.1	1.0%	-23.6	-1.8	-20.1	-1.1

The results go on.
canonical_smiles	TRPML1 ag	PINK1 expr mod	Six1-Eya2 inh	CtBP-E1A inh	D2 potentiator	D2 ag
COC(=O)C1=C(c2ccc(OC(F)(F)F)cc2)C[C@@H]2CC[C@H]1N2C(=O)N1CCCC1	1.1	-0.5%	6.1	-9.5	/	-2.2
COC(=O)c1ccc(N2C(=O)CC(N3CCC(n4c(=O)[nH]c5ccccc54)CC3)C2=O)cc1 (stereo unspecified)	0.4	-0.8%	0.0	-1.0	-2.8	0.3
O=C1C2C3CCC(O3)C2C(=O)N1CCO (stereo unspecified)	0.6	4.0%	-8.3	-5.7	-3.3	-3.2
O=C(NC1CCCCC1)N1Cc2cc(N3CCCCC3)ccc2-n2nncc2C1	-0.9	-0.3%	-12.1	-3.1	2.7	6.4
C[N+]1(C)C2CC(OC(=O)[C@H](CO)c3ccccc3)CC1C1OC12 (stereo partly specified)	0.3&0.5	1.7%&0.3%	2.0	1.5	-4.8	-2.8
COc1ccc(-n2c(Cc3cccc([N+](=O)[O-])c3)nc3ccccc3c2=O)cc1	0.9	-1.6%	2.1	1.9	-16.1	1.1
O=C(O)c1ccccc1N=Nc1c(O)[nH]c(=O)[nH]c1=O	/	0.2%	-7.2	-0.9	-6.2	-4.6
CC1(CCCc2ccc(N(CCCl)CCCl)cc2)NC(=O)NC1=O (stereo unspecified)	0.2	0.2%	3.4	4.9	0.4	-0.6
Cc1ccc(-c2nc3ccccc3c(=O)n2-c2cc(C)ccn2)cc1	-0.3	-0.2%[38.3 µM]	3.5	14.9	-6.2	-2.5
c1ccc(CC(NCc2ccco2)c2ccccc2)cc1 (stereo unspecified)	-0.5	2.2%	-3.0	0.9	-15.4	2.3
CC1([N+](=O)[O-])COP(=O)(Nc2ccc(Cl)cc2)OC1 (stereo unspecified)	0.2	-5.2%	2.2	5.9	3.6	0.4
CC(C)(C)C(=O)N1Cc2cc(N3CCCCC3)ccc2-n2nncc2C1	-0.7	-0.5%	3.3	-2.5	2.6	-3.2
O=c1[nH]c2ccccc2c(=O)n1-c1ccc(Cl)cc1Cl	-0.6	3.2%	1.0	6.8	2.5	-5.5
O=c1c2ccccc2nc(-c2cccs2)n1-c1ccccc1	-1.2	2.5%	-4.2	4.7	-19.4	-2.2
CCCCCn1c(=O)c(C(=O)Nc2nc(CC(=O)OCC)cs2)c(O)c2ccccc21	-0.3	7.2%	5.7	-11.6	-7.0	-5.4
O=C(CN1CC(c2ccccc2)CC1=O)NCc1ccc(F)cc1 (stereo unspecified)	1.1	-4.6%	0.2	0.0	-4.0	-2.7
Clc1cccc(C2NCCc3[nH]cnc32)c1 (stereo unspecified)	1.7	-0.4%	-8.0	-0.7	-13.1	-1.0
O=C1NC(=S)NC(=O)C1=Cc1ccc(OCc2ccccc2)cc1	-0.5	-1.7%	1.2	10.5	-9.8	-0.2
Cc1cc(OC(=O)CCCNC(=O)OC(C)(C)C)c2c3c(c(=O)oc2c1)CCC3	0.2	/	-2.4	2.2	-1.2	-2.0
CC(C)=CCN1CC[C@@]2(C)c3cc(O)ccc3C[C@@H]1C2C (stereo partly specified)	-0.4	-0.6%	3.8	8.2	-23.6	4.4
O=C1NC(=O)N(Cc2ccccc2)C(=O)/C1=C/N1CCCc2ccccc21	2.0	-2.2%	-3.0	?	-3.6	-2.4
COC(=O)C1=C(c2ccc(F)cc2OCc2ccccc2)C[C@@H]2CC[C@H]1N2C(=O)NCc1ccco1	1.0	-0.9%	-16.1	-1.0	-18.0	-3.5
COc1c(/C=C2/C(=O)NC(=O)N(C)C2=O)c(CCN(C)C(=O)c2ccccc2)cc2c1OCO2	/	0.7%	-4.0	4.8	-26.3	-2.7
Cc1ccc(C2=NC(C)(C)N3C2C3c2ccc([N+](=O)[O-])cc2)cc1 (stereo unspecified)	-1.0	8.1%	-2.5	-5.7	-5.3	-0.6
COC1=C(C)C(=O)C2=C(C1=O)C(CO)N1C(C#N)C3CC4C(C1C2N1CCOC41)N3C (stereo unspecified)	0.3	-6.5%	1.7	-11.2	21.0	/
COC(=O)C(O)(c1ccc(NC(=O)c2cccs2)c(C)c1)C(F)(F)F (stereo unspecified)	-0.2	0.5%	10.0	3.2	-6.0	-6.3
C[C@@H]1C2C[C@@]34COC(=O)C3=CC=C[C@H]4[C@@]13C[C@H](c1ccoc1)O[C@@H]3O2	-0.7	-1.0%	2.2	5.9	-6.9	-0.3
CCCSc1nc(O)c(CC)c(=O)n1C(C)CC (stereo unspecified)	0.0	-12.2%[38.3 µM]	1.6	3.0	3.6	-0.3
COc1ccc(Cl)cc1NC1=NCC(C)S1 (stereo unspecified)	-0.1	0.2%[38.3 µM]	1.2	4.9	-11.5	0.6
COc1ccc2c(c1)C13CCN(C)C(C2)C1CCC1(C3)OCCO1 (stereo unspecified)	-0.3	-0.2%	6.2	5.4	-7.6	-2.1
CC1CCCCN1CC(=O)c1ccc2cc[nH]c2c1 (stereo unspecified)	-0.1	2.1%	-1.0	1.2	-1.7	-1.5
CCOC(=O)c1[nH]c2ccc(OC)cc2c1C(SCC(=O)O)c1ccc(C(F)(F)F)cc1 (stereo unspecified)	-0.9	-1.8%	-6.8	2.4	3.7	-0.5
CN(C)CC1CSCCC1(O)c1ccc(Cl)cc1 (stereo unspecified)	-0.2	-1.1%	-0.2	4.5	13.0	0.0
CCCCCN1C(=O)c2cc(OC)ccc2[C@@]2(C(=O)OCC)Cc3cc(OC)ccc3[C@@H]12	1.4	-1.2%	-5.2	-1.7	/	/
c1ccc(N2Cc3ccccc3-n3nncc3C2)nc1	-0.7	1.0%	-4.0	2.2	-0.6	-11.2
Nc1c(C(=O)NCc2ccco2)c2nc3ccccc3nc2n1CCN1CCCCC1	0.6	-1.4%[38.3 µM]	-19.4	-19.5	-9.5	-0.9
c1ccc(P(c2ccccn2)c2ccccn2)cc1	-0.8	-1.1%	11.7	/	-8.2	-5.2
O=C1CN=C(c2ccccc2F)c2cc(Cl)ccc2N1	-0.6	2.4%	-3.5	5.1	12.4	-3.1
CCc1cccc(CC)c1NC(=S)N1CC2CC(C1)c1cccc(=O)n1C2 (stereo unspecified)	2.1	1.0%	7.5	2.5	-6.5	2.5
CC(=O)Nc1ccc(C(=O)C(Cc2ccccc2)N(C)C)cc1 (stereo unspecified)	0.4	4.1%	1.4	0.6	-3.3	-3.7
O=C1C2CCN(CC2)C1(CO)CO	0.0	-0.3%	1.9	2.1	-3.1	-1.9
CCc1nn(CC(=O)N2CCC3(CC2)OCCO3)c(=O)c2cccn12	0.5	-0.2%	2.5	-1.3	0.4	0.9

This is a subset. The share of hits here may be higher or lower than overall.
